MLL AF4-AF9 inh = inhibitors of AF4 peptide binding to AF9, primary screen, biochemical, AlphaScreen, biotin-AF4 peptide, FLAG-AF9, single point. 0.47% of 350,000 active. inhibition, % at 10 µM. AID 651704, 2012;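 active means every replicate reaching a set inhibition limit, whatever the replicate mean, cut at about 25% in these data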;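 further: 0% = plate neutral control median and 100% = total signal loss; the record names both 10 and 1 µM as test concentration; the first replicate is given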
Target sequence (P42568 whole entry, looked up): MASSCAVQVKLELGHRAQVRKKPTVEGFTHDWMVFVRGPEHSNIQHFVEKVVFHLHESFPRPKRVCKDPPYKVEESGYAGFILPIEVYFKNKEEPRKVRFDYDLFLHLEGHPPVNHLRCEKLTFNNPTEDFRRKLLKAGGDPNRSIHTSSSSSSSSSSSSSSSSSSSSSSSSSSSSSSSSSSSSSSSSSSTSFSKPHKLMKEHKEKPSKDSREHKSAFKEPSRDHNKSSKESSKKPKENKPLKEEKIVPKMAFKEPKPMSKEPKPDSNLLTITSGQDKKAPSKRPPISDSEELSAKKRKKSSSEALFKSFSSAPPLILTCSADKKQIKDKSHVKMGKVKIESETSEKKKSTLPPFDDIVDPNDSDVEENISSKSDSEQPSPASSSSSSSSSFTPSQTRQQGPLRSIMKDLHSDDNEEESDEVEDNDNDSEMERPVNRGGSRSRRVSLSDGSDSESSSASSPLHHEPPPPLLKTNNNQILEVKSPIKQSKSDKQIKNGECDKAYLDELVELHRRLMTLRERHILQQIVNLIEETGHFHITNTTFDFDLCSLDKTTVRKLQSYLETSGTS
Ecoli rRNA inh = reduced GFP signal of wild-type E. coli, primary screen, bacterial rRNA inhibitor project, GFP/RFP fluorescence, OD600, single point. E. coli WT GFP vs humanized-ribosome RFP mutants, 24 h; active compounds read low; DMSO median 0, no signal -100. GFP signal change (wild-type ribosome), % (no concentration beside the values). 1.6% of 350,000 active;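 active means significant combined selectivity score with lowered wild-type GFP, culture density cut under 30%, mutant RFP and density less affected; inactive means any of these conditions unmet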; further: one replicate is shown; some compounds called inactive have numbers as strong as hits
FGF22 binding = binders of human FGF22 protein, primary screen, FGF22 synaptogenesis inhibitor project, biophysical, thermal shift, single point. recombinant FGF22 thermal shift, SYPRO orange fluorescence; percent of sucrose octasulfate shift, DMSO zero. calls only at 9.99 µM. 1.5% of 340,000 active. AID 651658, 2012;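 active means melting point raised past a set limit in the mean and every replicate; three in four hits are not shown here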
Target sequence (Q9HCT0 whole entry, looked up): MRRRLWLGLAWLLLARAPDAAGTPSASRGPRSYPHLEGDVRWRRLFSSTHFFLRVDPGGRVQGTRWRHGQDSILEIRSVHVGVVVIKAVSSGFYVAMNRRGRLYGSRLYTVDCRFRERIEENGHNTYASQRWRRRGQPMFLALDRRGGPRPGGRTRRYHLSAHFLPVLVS
Ecoli rRNA inh OD600 = further read-out of Ecoli rRNA inh, marked with its call; OD600 change, %; measured here: OD600 growth;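 optical density of the mix in the first replicate; 0 = DMSO median and -100 = no signal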
Ecoli rRNA inh RFP = second read-out of Ecoli rRNA inh, no call of its own (marks repeat the call); RFP signal change, %; measured here: RFP humanized mutant strains;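 first replicate; 0 = DMSO median and -100 = no signal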
Numbers without * were called inactive; i = inactive.

SMILES	MLL AF4-AF9 inh	Ecoli rRNA inh	Ecoli rRNA inh OD600	Ecoli rRNA inh RFP	FGF22 binding
O=C(NCc1ccccc1)[C@@H]1CCCN1C(=O)[C@H]1CCCN1C(=O)c1ccccc1	0.7	-5	-25	3.2	i
C[C@@H]1CN([C@@H](C)CO)C(=O)c2cc(NS(=O)(=O)c3cccs3)ccc2O[C@@H]1CN(C)C(=O)Nc1ccc2c(c1)OCO2	1.2	-1	10	-2.4	i
COCCNC(=O)C[C@@H]1CC[C@@H]2[C@H](COC[C@@H](O)CN2C(=O)Nc2ccc3c(c2)OCO3)O1	-3.2	6	16	0.5	i
COc1ccc(Cc2noc(=O)[nH]2)cc1	0.6	7	8	5.2	i
Cc1ccc(S(=O)(=O)N(C)C[C@@H]2OCCCC[C@H](C)Oc3ccc(NS(=O)(=O)c4cccs4)cc3C(=O)N([C@@H](C)CO)C[C@@H]2C)cc1	1.5	0	7	1.4	i
O=C(Nc1ccc(F)cc1)C(c1ccnc2ccccc12)N1CCN(C(=O)c2ccco2)CC1 (centres undefined)	-5.0	-7	-6	3.8	i
Cc1ccc(S(=O)(=O)Nc2ccc3c(c2)CC(=O)N([C@H](C)CO)C[C@@H](C)[C@@H](CN(C)S(=O)(=O)c2c(C)noc2C)O3)cc1	-6.3	2	10	-1.9	i
COc1ccccc1CCn1cnc(C)c1CC(C)C	5.0	1	2	5.0	i
Cc1ccc(S(=O)(=O)N(C)C[C@H]2OCCCC[C@@H](C)Oc3ccc(NC(=O)Nc4ccccc4)cc3C(=O)N([C@@H](C)CO)C[C@@H]2C)cc1	-1.5	1	0	-1.1	i
Cn1[nH]c2c(c1=O)[C@H](c1ccc(F)cc1)O[C@H](CCc1ccccc1)C2	-0.3	3	-12	-1.3	i
CN1C(=O)c2cc(NC(=O)c3cccs3)ccc2OC[C@H]2O[C@H](CC(=O)NCCN3CCCCC3)CC[C@H]21	3.0	3	10	-0.8	i
O=C(Nc1ccc(C(=O)N2CCOCC2)cc1)c1ccccc1	0.1	22	14	0.1	i
COc1ccc(S(=O)(=O)Nc2cccc3c2O[C@@H](CN(C)CC2CC2)[C@H](C)CN([C@H](C)CO)C3=O)cc1	-12	-1	-1	-0.5	i
CO[C@@H]1CC[C@@H]2CCOc3c(C#N)cccc3C(=O)N(C)[C@@H](C)C(=O)N(C)C[C@H]1O2	-15	2	8	-3.8	i
C[C@H](CO)N1C[C@H](C)[C@H](CN(C)S(=O)(=O)c2cccs2)Oc2c(NC(=O)c3cnccn3)cccc2C1=O	-0.6	-1	3	3.7	i

In the list so far, these have a thiophene ring, fused or not.
SMILES	MLL AF4-AF9 inh	Ecoli rRNA inh	Ecoli rRNA inh OD600	Ecoli rRNA inh RFP	FGF22 binding
C[C@@H]1CN([C@@H](C)CO)C(=O)c2cc(NS(=O)(=O)c3cccs3)ccc2O[C@@H]1CN(C)C(=O)Nc1ccc2c(c1)OCO2	1.2	-1	10	-2.4	i
Cc1ccc(S(=O)(=O)N(C)C[C@@H]2OCCCC[C@H](C)Oc3ccc(NS(=O)(=O)c4cccs4)cc3C(=O)N([C@@H](C)CO)C[C@@H]2C)cc1	1.5	0	7	1.4	i
CN1C(=O)c2cc(NC(=O)c3cccs3)ccc2OC[C@H]2O[C@H](CC(=O)NCCN3CCCCC3)CC[C@H]21	3.0	3	10	-0.8	i
C[C@H](CO)N1C[C@H](C)[C@H](CN(C)S(=O)(=O)c2cccs2)Oc2c(NC(=O)c3cnccn3)cccc2C1=O	-0.6	-1	3	3.7	i

Continued:
SMILES	MLL AF4-AF9 inh	Ecoli rRNA inh	Ecoli rRNA inh OD600	Ecoli rRNA inh RFP	FGF22 binding
CC(=O)N(C(C)=O)c1ccc2c(c1)OCCO2	0.7	6	9	-4.4	i
COCC(=O)N[C@@H]1C=C[C@@H](CC(=O)NCc2ccccc2OC)O[C@@H]1CO	-1.0	1	1	0.0	i
O=C(C[C@H]1C[C@@H]2c3cc(NC(=O)Nc4ccccc4)ccc3O[C@@H]2[C@H](CO)O1)NCc1ccncc1	1.7	1	-5	0.4	i
CN(C)C(=O)C[C@@H]1CC[C@H]2[C@@H](COC[C@H](O)CN2S(=O)(=O)c2ccccc2)O1	-12	-3	1	-5.7	i
C[C@H]1CN([C@@H](C)CO)C(=O)c2cccc(NC(=O)c3nc4ccccc4s3)c2O[C@@H]1CN(C)S(=O)(=O)c1ccc(F)cc1	-1.9	-4	11	-3.2	i
O=C(CCN1CCCCC1)NCC[C@H]1CC[C@@H](NC(=O)C2CCOCC2)[C@H](CO)O1	-4.9	0	3	0.9	i
CO[C@H]1CN(C)C(=O)c2ccc(NS(=O)(=O)c3ccccc3C)cc2OC[C@H](C)NC[C@@H]1C	-4.5	0	10	-3.3	i
c1ccc(CNc2nc(NCCc3ccncc3)c3sccc3n2)cc1	1.0	-1	-26	-4.1	i
CO[C@@H]1CN(C)C(=O)c2cc(NC(C)=O)ccc2OC[C@H](C)N(Cc2ccc(F)cc2)C[C@@H]1C	3.1	2	-2	-2.0	i
CO[C@H](CN(C)S(=O)(=O)c1ccccc1)[C@H](C)CN(Cc1ccccc1Cl)[C@@H](C)CO	0.6	0	-27	-1.4	i
C[C@H]1CN([C@@H](C)CO)C(=O)c2cc(C#Cc3ccccn3)cnc2O[C@@H]1CN(C)Cc1cccnc1	-1.9	6	12	1.8	i
CC1(C(=O)NC2CCCC2)CCC(=O)N1CCc1c[nH]c2ccccc12 (centres undefined)	-1.8	0	5	3.8	i
C[C@@H]1CN([C@H](C)CO)C(=O)c2cccc(NC(=O)Nc3cccc4ccccc34)c2O[C@H]1CN(C)C(=O)Nc1ccc(F)cc1	11	-5	-7	0.4	i
C[C@@H]1CN([C@H](C)CO)S(=O)(=O)c2ccc(-c3ccccc3F)cc2O[C@@H]1CN(C)CC1CC1	9.3	-4	-1	0.9	i
COc1ccc2c3c(n(C)c2c1)[C@H](CO)NCC31CCN(Cc2ccc(Cl)cc2)CC1	44*	-4	-15	5.3	i
COCCN(C[C@@H]1[C@@H](c2ccccc2)[C@H](CO)N1C(=O)C1CC1)C(C)=O	-14	1	7	-0.9	i
CCCC(=O)Nc1ccc2c(c1)OC[C@@H](C)N(Cc1ccc(F)cc1)C[C@@H](C)[C@H](OC)CN(C)C2=O	-0.5	-3	-15	3.6	i
CCCC#Cc1ccc([C@@H]2[C@H]3CN(CCC)CCCCN3[C@H]2CO)cc1	4.4	2	-2	4.6	i
C[C@H]1CCCCO[C@H](CN(C)C(=O)Cc2ccccc2)[C@@H](C)CN([C@@H](C)CO)C(=O)c2cc(NS(=O)(=O)c3ccc(Cl)cc3)ccc2O1	-3.0	0	-7	0.8	i
O=C(C[C@H]1C[C@H]2c3cc(NC(=O)C4CCOCC4)ccc3O[C@H]2[C@@H](CO)O1)NCc1ccccn1	-0.2	2	3	-1.7	i
C[C@@H]1CN([C@H](C)CO)C(=O)c2cc(C#CC3CCCCC3)cnc2O[C@@H]1CN(C)C(=O)NC1CCCC1	-2.7	-2	-2	0.8	i
CN1C(=O)c2cc(NC(=O)C3CCCC3)ccc2OC[C@H]2O[C@H](CC(=O)NCC3CC3)CC[C@H]21	-1.2	1	-4	1.0	i
O=C(Nc1ccc(C(F)(F)F)cc1)N[C@@H]1CC[C@@H](CCNC(=O)c2ccccc2F)O[C@@H]1CO	-4.4	-5	-13	2.0	i
CC(C)CC#Cc1cnc2c(c1)C(=O)N([C@H](C)CO)C[C@H](C)[C@@H](CN(C)C(=O)c1ccccc1)O2	-0.8	1	-2	-2.3	i
CN(C)C(=O)C[C@H]1C=C[C@@H](NC(=O)NC2CCCC2)[C@@H](CO)O1	-1.2	3	8	-0.6	i
C[C@@H]1CN([C@H](C)CO)C(=O)c2cc(NC(=O)c3ccncc3)ccc2O[C@@H]1CN(C)Cc1ccc(-c2ccccc2)cc1	7.2	2	-31	25	i
COCC(=O)N(C)C[C@H]1Oc2cc(-c3cncnc3)ccc2S(=O)(=O)N([C@@H](C)CO)C[C@H]1C	-3.1	0	17	-0.1	i
O=C(c1cccnc1)N1C[C@@H]2[C@H](c3ccccc31)[C@@H](CO)N2C(=O)C1CCCCC1	-0.2	4	8	0.2	i
CN(C)CCCNC(=O)C[C@H]1CC[C@@H](NS(=O)(=O)c2ccc(F)cc2)[C@H](CO)O1	-0.7	5	8	-2.8	i
C[C@@H]1CN([C@@H](C)CO)C(=O)c2cc(/C=C/c3ccccc3)cnc2O[C@@H]1CN(C)C(=O)C1CCOCC1	-6.9	2	9	-1.6	i
CC(C)NC(=O)N(C)C[C@H]1OCCCC[C@@H](C)Oc2ccc(NS(=O)(=O)c3cccs3)cc2C(=O)N([C@@H](C)CO)C[C@H]1C	-1.3	-4	-7	-0.9	i
COc1ccc(NC(=O)Nc2ccc3c(c2)[C@H]2C[C@@H](CC(=O)NCC4CC4)O[C@@H](CO)[C@H]2O3)cc1	-2.0	1	11	-3.5	i
C/C=C/c1ccc([C@H]2[C@@H](CO)N(C(=O)NC3CCCCC3)[C@H]2C#N)cc1	-6.2	-5	-31	-3.8	i
CC(=O)c1ccc(-c2cnc3c(NC=O)cc(-c4ccc(S(C)(=O)=O)cc4)cn23)cc1	-0.3	5	6	4.8	i
O=C(NCC[C@H]1CC[C@H](NS(=O)(=O)c2ccc(Oc3ccccc3)cc2)[C@H](CO)O1)C1CC1	0.2	-8	-9	1.2	i
Cc1noc(C)c1S(=O)(=O)N(C)C[C@H]1OCCCC[C@H](C)Oc2ccc(NS(C)(=O)=O)cc2C(=O)N([C@H](C)CO)C[C@H]1C	-14	-3	4	-0.2	i
CN1CCN(c2ccc(-c3cc(NC=O)c4ncc(-c5ccc(F)cc5)n4c3)cc2)CC1	38*	3	19	11	i
CC(O)(c1ccc(F)c(F)c1)c1nc(-c2cc3ccccc3o2)cs1 (centres undefined)	0.0	-37	-73	-12	i
O=C(Nc1ccc2c(c1)OCO2)c1ccc2sc([C@@H]3O[C@H](CO)[C@@H](O)[C@H]3O)nc2c1	-0.6	5	21	-1.2	i
COc1cc(OC)c(C2C=CC(=O)CC2)c(OC)c1 (centres undefined)	-1.3	-2	6	-0.1	i
C[C@@H]1CCCCO[C@H](CN(C)S(=O)(=O)c2ccc(F)cc2)[C@@H](C)CN([C@@H](C)CO)C(=O)c2cc(NC(=O)c3ccccc3)ccc2O1	0.3	-1	3	0.7	i
O=S(=O)(c1cccs1)N1CCCCN2[C@H](CO)[C@@H](c3ccc(Br)cc3)[C@H]2C1	1.6	-29	-67	1.1	i
O=C(C[C@@H]1C=C[C@@H](NC(=O)c2ccncc2)[C@H](CO)O1)Nc1ccc(-c2ccccc2)cc1	-0.7	0	7	5.6	i
CC(C)Oc1ccc2ccccc2c1CNC[C@H]1O[C@@H](n2ccc(=O)[nH]c2=O)[C@H](O)[C@@H]1O	-1.3	-1	4	-5.7	i
CN1c2ccc(C#Cc3cccnc3)cc2[C@@H]2[C@@H](CCN2S(=O)(=O)c2ccc(F)cc2)[C@H]1CO	-2.3	-5	0	-0.1	i
C[C@@H]1CN([C@H](C)CO)C(=O)c2cc(NC(=O)c3ccncc3)ccc2O[C@@H](C)CCCCO[C@@H]1CN(C)C(=O)C1CCCCC1	-3.3	-3	0	0.7	i
Cc1noc(C)c1NC(=O)Nc1cccc2c1O[C@@H](CN(C)Cc1ccc(Cl)c(Cl)c1)[C@@H](C)CN([C@@H](C)CO)C2=O	0.4	-1	-5	1.5	i
COC(=O)c1ccc(C)cc1C1CN=NC12Cc1cc(C)ccc1C2=O (centres undefined)	-0.5	-10	-8	1.5	i
COc1ccc(-c2cc3nc(-c4ccccc4)cc(N4CCN(C(=O)c5ccoc5)CC4)n3n2)cc1	-7.2	-1	0	4.0	i
C[C@H](O)CNC(=O)c1[nH]cnc1C(=O)Nc1ccc(CNC(=O)OC(C)(C)C)cc1	0.5	18	14	1.9	i
COc1ccc(CN2CC3(CCN(C(=O)C4CCOCC4)CC3)c3c(n(C)c4cc(OC)ccc34)[C@H]2CO)cc1	8.3	5	2	0.7	i
COCC(=O)N1CC(=O)N2[C@H](CO)[C@@H](c3ccc(-c4ccncc4)cc3)[C@H]2C1	1.2	-1	10	1.8	i
Cc1noc(C)c1S(=O)(=O)Nc1ccc2c(c1)C(=O)N([C@@H](C)CO)C[C@@H](C)[C@H](CN(C)Cc1ccc(C(=O)O)cc1)OCCCC[C@@H](C)O2	-12	0	11	-0.7	i
CCNC(=O)c1cc2c(c(-c3cccc(-c4cccc(C(=O)N(C)C)c4)c3)n1)[C@@H](CCO)N([S@](=O)C(C)(C)C)C2	-7.0	-4	-5	2.0	i

One compound at a time, from the list above. Values in the order: MLL AF4-AF9 inh, Ecoli rRNA inh, Ecoli rRNA inh OD600, Ecoli rRNA inh RFP, FGF22 binding
Entry for `COC(=O)c1ccc(C)cc1C1CN=NC12Cc1cc(C)ccc1C2=O` (centres undefined) = -0.5, -10, -8, 1.5, i
Entry for `COc1ccccc1CCn1cnc(C)c1CC(C)C` = 5.0, 1, 2, 5.0, i
Entry for `COc1ccc(-c2cc3nc(-c4ccccc4)cc(N4CCN(C(=O)c5ccoc5)CC4)n3n2)cc1` = -7.2, -1, 0, 4.0, i
Entry for `COCC(=O)N1CC(=O)N2[C@H](CO)[C@@H](c3ccc(-c4ccncc4)cc3)[C@H]2C1` = 1.2, -1, 10, 1.8, i

Not all compounds are listed. The share of hits here may be higher or lower than overall.
